GIRK2 act = activators of human GIRK2 potassium channels. HEK293-GIRK2 thallium flux, Thallos fluorescence. calls only for hits at 25 µM. 63,000 compounds, 0.05% hits;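 active means among the strongest 0.2% of first-round signals and kept after retests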;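 further: first round at about 10 µM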
Target sequence (P48051 whole entry, looked up): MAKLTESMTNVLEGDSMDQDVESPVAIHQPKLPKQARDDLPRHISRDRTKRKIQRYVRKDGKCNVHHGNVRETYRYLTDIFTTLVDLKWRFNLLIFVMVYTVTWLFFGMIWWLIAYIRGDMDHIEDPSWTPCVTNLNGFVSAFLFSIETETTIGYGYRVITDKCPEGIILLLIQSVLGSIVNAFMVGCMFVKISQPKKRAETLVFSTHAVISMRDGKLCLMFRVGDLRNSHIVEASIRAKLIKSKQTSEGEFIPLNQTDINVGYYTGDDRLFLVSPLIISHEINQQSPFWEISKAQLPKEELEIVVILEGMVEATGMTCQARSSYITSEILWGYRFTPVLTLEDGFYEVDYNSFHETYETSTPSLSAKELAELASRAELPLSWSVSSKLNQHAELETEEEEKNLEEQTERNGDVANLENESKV
Calls only; i = inactive.

| Compound | GIRK2 act |
| --- | --- |
| Cc1ccc(-c2noc(C3CCN(CC(=O)Nc4ccccc4Cl)CC3)n2)cc1 | i |
| Cc1cccc(N2CCN(c3ncc4c(=O)n(-c5ccccc5)c(=O)[nH]c4n3)CC2)c1C | i |
| COc1ccc(S(=O)(=O)Nc2cccc(C(=O)Nc3sc4c(c3C(N)=O)CCCCC4)c2)cc1 | i |
| Cc1noc(C)c1CCC(=O)NCC#CCOc1cccc(C(F)(F)F)c1 | i |
| COc1c(C(CC(C)C)OC(C)=O)ccc2c1C(=O)OCc1cc(C)cc(O)c1O2 (centres undefined) | i |
| CCn1c(SCc2ccccc2)nc2c1c(=O)n(C)c(=O)n2C | i |
| COc1ccccc1S(=O)(=O)NCCC(O)c1cc(C)oc1C (centres undefined) | i |
| Cc1ccc(-c2csc(NC(=O)C3CCN(S(=O)(=O)c4ccc(F)cc4)CC3)n2)cc1 | i |
| N#CC1=CN(c2cccc(Br)c2)c2cc(F)ccc2S1(=O)=O | i |
| CCN1C(SCC(=O)Nc2cccc(Br)c2)=NS(=O)(=O)c2ccccc21 | i |
| Cc1nnsc1C(=O)NCC#CCOc1cccc(C(F)(F)F)c1 | i |
| COc1ccc(OC)c(-n2nnc(C(=O)NCc3ccccc3)c2N)c1 | i |
| Cc1ccc2c(c1)N(Cc1nc(-c3ccc(C)c(C)c3)no1)C(=O)CO2 | i |
| CC(C)(C)NC(=O)COc1ccccc1[N+](=O)[O-] | i |
| Cc1c(C)n2c3c(=O)[nH]c(=O)n(C)c3nc2n1-c1ccc(Oc2ccccc2)cc1 | i |
| O=C(NCc1ccc(OCc2ccccc2)cc1)C1COCC(=O)N1Cc1ccccc1 (centres undefined) | i |
| Cc1nc(-c2ccccc2F)sc1CNC(=O)c1cc(-c2cccs2)nn1C | i |
| N#CCSc1nc2cc(C(=O)NC3CCCC3)ccc2c(=O)n1CCc1ccccc1 | i |
| CC(=O)C(C)Sc1cc(C(C)(C)C)nc2c(-c3ccccc3)c(C)nn12 (centres undefined) | i |
| Cc1cc(C(O)CCNC(=O)COc2ccccc2C)c(C)o1 (centres undefined) | i |

3 entries from above, as labelled records:
Cc1nnsc1C(=O)NCC#CCOc1cccc(C(F)(F)F)c1
  GIRK2 act = i

COc1ccc(OC)c(-n2nnc(C(=O)NCc3ccccc3)c2N)c1
  GIRK2 act = i

Cc1ccc2c(c1)N(Cc1nc(-c3ccc(C)c(C)c3)no1)C(=O)CO2
  GIRK2 act = i

Continued:
| Compound | GIRK2 act |
| --- | --- |
| CCOc1ccccc1NC(=O)NCCC(O)C1CC1 (centres undefined) | i |
| O=C(c1ccc(F)cc1)N1CCN(c2ccc3nnc(-c4ccco4)n3n2)CC1 | i |
| COc1ccc2cccc(NC(=O)Cn3ccc4ccccc43)c2n1 | i |
| N#C/C(=C\c1cccnc1)c1nc2ccccc2s1 | i |
| CC(C)(C)C(=O)NCC(O)(c1ccco1)C1CC1 (centres undefined) | i |
| O=C(Cn1cnc2nc(N3CCOCC3)ncc2c1=O)Nc1cccc(Cl)c1F | i |
| CC1CN(C(=O)CN2CC(c3nc(-c4ncccn4)no3)C2)CC(C)O1 (centres undefined) | i |
| COc1ccccc1NC(=O)c1ccc(NS(=O)(=O)c2cccc(C(F)(F)F)c2)cc1 | i |
| O=C(CSc1nc2ccccc2o1)NCC#CCOc1ccc2c(c1)OCO2 | i |
| CS(=O)(=O)NCCNc1ccc(-n2cccc2)nn1 | i |
| CC(O)(CCc1ccccc1)CNC(=O)C(=O)Nc1ccc(OC(F)(F)F)cc1 (centres undefined) | i |
| O=C(NCCc1cccs1)C1CCCN(c2ncnc3c2oc2ccccc23)C1 (centres undefined) | i |
| CC(=O)c1cccc(NC(=O)CCc2c(C)[nH]c(=O)n(C)c2=O)c1 | i |
| C=C1/C(=C\C=C2/CCC[C@]3(C)[C@@H]([C@H](C)CCCC(C)(C)O)CC[C@@H]23)C[C@@H](O)C[C@@H]1O | i |
| CC(C)(C)C(=O)N1CCN(c2nnc(SCC(N)=O)s2)CC1 | i |
| CCSc1ccccc1C(=O)NCCN1CCN(c2ccccc2OC)CC1 | i |
| CC(C)n1c(C2CC(=O)N(C(C)(C)C)C2)nc2ccccc21 (centres undefined) | i |
| CCCCCC(O)/C=C/[C@H]1C=CC(=O)[C@H]1C/C=C\CCCC(=O)O (some centres undefined) | i |
| Cc1cnc(-n2nnc(C(=O)NC3CC3)c2C)s1 | i |
| COCCN(Cc1ccncc1)S(=O)(=O)Cc1ccc(C(F)(F)F)cc1 | i |
| C=C(C)Cn1c(=O)c2c(nc3n2CCN3c2ccc(OC)cc2OC)n(C)c1=O | i |
| O=S(=O)(Cc1ccccc1)NCCOc1ccc(F)cc1 | i |
| Nc1ncnc2n[nH]c(Nc3ccc(F)cc3)c12 | i |
| Cc1cnnn1-c1ccc2noc(-c3ccccc3)c2c1 | i |
| CC(=O)Cn1c(=O)c2c(nc3n2CCN3c2ccc(C)cc2C)n(C)c1=O | i |
| O=C(c1cc2ccccc2o1)N1CCN(C(=O)C2COc3ccccc3O2)CC1 (centres undefined) | i |
| CCCn1c(=O)c2c(nc3n(-c4ccc(OC)cc4OC)c(-c4ccccc4)cn23)n(C)c1=O | i |
| Cc1cc(C)c(S(=O)(=O)N(C)CCCC(=O)O)cc1N(C)S(=O)(=O)c1ccccc1 | i |
| COc1cccc2cc(C(=O)NCC3CCN(Cc4cccs4)CC3)c(=O)oc12 | i |
| O=C(NC1CC(O)C(CO)C1)C1(c2cccs2)CCCC1 (centres undefined) | i |
| Cc1cc2oc(=O)cc(CN3CCN(CCO)CC3)c2cc1C | i |
| O=C(CSc1ccc(F)cc1)NCC(O)c1ccoc1 (centres undefined) | i |
| O=C(NC1CC1)N1CCC(c2ccccc2)C1 (centres undefined) | i |
| CCCn1c(=O)c2c(nc3oc(-c4ccccc4)cn32)n(C)c1=O | i |
| O=c1n(Cc2ccccc2)nc2c(S(=O)(=O)N3CCCCC3)cccn12 | i |
| O=c1nc2n(c3ccccc13)CC/C2=C\c1c[nH]c2ccccc12 | i |
| CN(C)c1cccc(C(=O)N2CCN(Cc3nc4ccccc4[nH]3)CC2)c1 | i |
| CC(C)(C)n1nc2c(c1NC(=O)c1cc(C3CC3)on1)CSC2 | i |
| COc1cccc(NC(=O)CN2CCC(COCc3ccc(F)cc3)CC2)c1 | i |
| CCn1c(SCC(=O)Nc2ccccc2OC)nc2c3cc(OC)ccc3n(C)c2c1=O | i |
| COc1ccccc1-c1ccc(N2CCN(S(=O)(=O)c3ccccc3Cl)CC2)nn1 | i |
| CCc1cnc2c(c1SCC(=O)Nc1cccc([N+](=O)[O-])c1)c(=O)n(C)c(=O)n2C | i |
| COCCn1c(=NC(=O)c2cc(C)no2)sc2cc(Cl)ccc21 | i |
| CCOc1ccc(-c2ccc(=O)n(CCc3nc(-c4ccc(SC)cc4)no3)n2)cc1 | i |
| O=C(NCCn1nc(-c2ccco2)ccc1=O)c1csc(-c2cnccn2)n1 | i |
| COc1cccc(-c2cc(C(=O)N3CC(c4nc(-c5ccco5)no4)C3)[nH]n2)c1 | i |
| CC(=O)Nc1ccc(NC(=O)Cn2cnc3c(-c4ccc(Cl)cc4)csc3c2=O)cc1 | i |
| CCOc1ccc2cccc(NC(=O)c3cc(C)oc3C)c2n1 | i |
| CC(C)c1cc(=O)[nH]c(-n2nc(-c3cccs3)cc2NC(=O)/C=C\c2ccc3c(c2)OCO3)n1 | i |
| CCCCc1ccc(NC(=O)c2cn(C)nc2C)cc1 | i |

The listing continues.
| Compound | GIRK2 act |
| --- | --- |
| COc1cccc2sc(N(Cc3cccnc3)C(=O)c3ccnn3C)nc12 | i |
| COc1ccc(CC(=O)Oc2c(S(=O)(=O)c3ccc(C)cc3)c(C)nn2C(C)(C)C)cc1 | i |
| CN(C)S(=O)(=O)c1ccc(C(=O)N2CCC(C(=O)Nc3nccs3)CC2)cc1 | i |
| COC(=O)CNC(=O)c1sc2ncccc2c1-n1cccc1 | i |
| O=C(NCCc1ccccc1)Nc1nc2c(F)cc(F)cc2s1 | i |
| O=C(CCSc1ccccc1)N1CCC(Oc2ccc(C(F)(F)F)cn2)CC1 | i |
| CN1CCC(CNC(=O)c2cccc3ccccc23)CC1 | i |
| COc1ccccc1NC(=O)c1ccc(CNS(=O)(=O)c2cccc(Cl)c2)cc1 | i |
| CCOC(=O)N1CCC(NC(=O)CN(C)c2nc3c(C)ccc(C)c3s2)CC1 | i |
| Cn1c(=O)[nH]c(=O)c2c1nc(N1CCOCC1)n2Cc1ccccc1 | i |
| Cc1ccsc1C(O)CNC(=O)Nc1ccc2c(c1)OCO2 (centres undefined) | i |
| O=C(c1cnn(-c2ccccc2)n1)N1CC(c2nc(-c3cccs3)no2)C1 | i |
| O=C(c1cc2ccccc2oc1=O)N1CCN(Cc2nnnn2-c2ccccc2)CC1 | i |
| O=C(NCCCN1CCN(c2ccccc2)CC1)C(=O)NCc1ccccc1 | i |
| CC(C)CNC(=O)Cc1csc(Nc2ccc(OC(F)(F)F)cc2)n1 | i |
| CCN(CC)C(=O)Oc1ccc2c(=O)c(-c3ccccc3OC)coc2c1 | i |
| COc1cc(C)c(C(C)C)cc1S(=O)(=O)NCc1ccco1 | i |
| O=C(c1cc(-c2ccco2)on1)N1CCn2c1nc1ccccc12 | i |
| COc1ccc(CNC(=O)N2CCC3(CC2)OCCS3)cc1OC | i |
| O=C(COc1ccc2c(=O)c(-c3ccc(Cl)cc3)coc2c1)c1ccc(F)cc1 | i |
| Cc1cc(C)n(-c2ccc(=O)n(CCNC(=O)c3sc(-c4cccs4)nc3C)n2)n1 | i |
| COc1ccc(OC)c(S(=O)(=O)Nc2ccc3c(c2)N(S(C)(=O)=O)CCC3)c1 | i |
| Cc1ccc(C(=O)Nc2ccc3c(c2)CCCN3S(=O)(=O)c2ccc(C)cc2)cc1 | i |
| Cc1nc(OCC(=O)NCc2cccnc2)cc(-n2cccn2)n1 | i |
| O=C(NCC#CCOc1cccc(C(F)(F)F)c1)C1COc2ccccc2O1 (centres undefined) | i |
| CC(=O)c1cccc(NC(=O)Cn2c(C)nc(C(C)(C)C)cc2=O)c1 | i |
| Cc1cc(NC(=O)Cn2cccc(-c3nc(C4CC4)no3)c2=O)no1 | i |
| Cc1cc(C)n2nc(C(=O)NCc3sc4nc(-c5ccc(F)cc5)cn4c3C)nc2n1 | i |
| O=C(c1ccc(OC(F)(F)F)cc1)N1CCN(CC(O)C2CC2)CC1 (centres undefined) | i |
| O=C(c1cccs1)n1cnc2ccccc21 | i |

The final 2 records of the section before are carried over, then new ones follow.
| Compound | GIRK2 act |
| --- | --- |
| O=C(c1ccc(OC(F)(F)F)cc1)N1CCN(CC(O)C2CC2)CC1 (centres undefined) | i |
| O=C(c1cccs1)n1cnc2ccccc21 | i |
| COc1ccc(NC(=O)CSc2nnc(-c3ccco3)n2N)cc1OC | i |
| CS(=O)(=O)c1cccc2sc(N(CCN3CCOCC3)C(=O)c3ccco3)nc12 | i |
| NC(=O)CSc1nnc2n(CCC(=O)NC3CCCCC3)c(=O)c3ccccc3n12 | i |
| CSc1cccc(NC(=O)Cn2nc(SC)c(-c3nc(-c4ccc(Cl)cc4)no3)c2N)c1 | i |
| COCCNC(=O)N1CCC(Oc2ncccc2Cl)CC1 | i |
| O=C(CSc1nc2ccccc2s1)N1CCN(c2cc(-c3ccccc3)ncn2)CC1 | i |
| O=C(Nc1cnc(Oc2ccccc2F)nc1)c1cccs1 | i |
| O=C(NCC(O)c1ccc2c(c1)CCO2)Nc1cccs1 (centres undefined) | i |
| O=C(Cc1ccc(-n2c(=O)[nH]c3ccsc3c2=O)cc1)Nc1ccc2c(c1)OCCO2 | i |
| CN(C)[C@@H]1C(=O)C(C(=O)NCN2CCCC2)=C(O)[C@@]2(O)C(=O)C3=C(O)c4c(O)cccc4[C@@](C)(O)C3CC12 (some centres undefined) | i |

Some of the entries above, set out differently.
GIRK2 act | compound
i | O=C(CSc1nc2ccccc2s1)N1CCN(c2cc(-c3ccccc3)ncn2)CC1
i | N#C/C(=C\c1cccnc1)c1nc2ccccc2s1
i | O=C(c1ccc(OC(F)(F)F)cc1)N1CCN(CC(O)C2CC2)CC1 (centres undefined)

The list goes on.
| Compound | GIRK2 act |
| --- | --- |
| Cc1nc(OCC(=O)Nc2cc(C)on2)cc(-n2cccn2)n1 | i |
| CCOCCn1c(=O)c2c(nc3n2CC(C)CN3c2ccc(Br)cc2)n(C)c1=O (centres undefined) | i |
| CCCNC(=O)C1CCC(Cn2c(=O)c3sccc3n(Cc3cccc(OC)c3)c2=O)CC1 (centres undefined) | i |
| Nc1nc(SCC(=O)Nc2cccc(C(F)(F)F)c2)n[nH]1 | i |
| COCCn1c(C)cc(C(=O)CSc2nnc3scc(-c4ccc(Cl)cc4)n23)c1C | i |
| COc1cccc(N2CCN(C(=O)CCn3c(=S)[nH]c4cc5c(cc4c3=O)OCO5)CC2)c1 | i |
| CCCCn1c(SCC(=O)NCc2ccc(Cl)cc2)nc2c(sc3ncccc32)c1=O | i |
| COC(=O)c1c(NC(C)c2cccc(OC)c2)c2cccc(Cl)c2[nH]c1=O (centres undefined) | i |
| Cc1noc(C2CN(CC3CCCCC3)C2)n1 | i |
| Cc1ccc(CNC(=O)c2cccnc2-c2nc3ccccc3s2)cc1 | i |
| COc1cc(OC)c(NC(=O)COc2cc(C)nc(-c3ccc(C(F)(F)F)cc3)n2)cc1Cl | i |
| O=C(CN1CCN(Cc2nc3ccccc3[nH]2)CC1)c1ccccc1 | i |
| CCOC(=O)N1CCN(C(=O)Nc2nc(CC(=O)NC3CCCCCC3)cs2)CC1 | i |
| CCCCN(C)C(=O)Cn1cccc(S(=O)(=O)N2CCCCCC2)c1=O | i |
| COC(=O)c1ccc2c(=O)n(CC(=O)NCc3ccc(F)cc3)c(=S)[nH]c2c1 | i |
| Cc1noc(C)c1CC(=O)N1CCC(Oc2ncccc2Cl)CC1 | i |
| CCOc1ccc(S(=O)(=O)Nc2ccc3c(c2)CCCN3S(=O)(=O)c2ccccc2)cc1 | i |
| COc1ccc(-n2ccn(CC(=O)Nc3ccc(Cl)cc3)c2=O)cc1 | i |
| O=C(Cn1nc2c(c1NC(=O)c1cccc(Cl)c1)CSC2)NCCc1ccccc1 | i |
| COc1ccc(S(=O)(=O)N2CCN(c3ccc(C)cc3C)CC2)cc1C | i |
| CCCCN1C(=O)C(O)(CC(C)=O)c2ccccc21 (centres undefined) | i |
| CNC(=O)Cn1cnc2c([nH]c3ccccc32)c1=O | i |

From PubChem

A portion of the library; rates above refer to the full screens.
